VCAM-1 augmentation = enhancers of VCAM-1 display on endothelial cells, imaging, high-content imaging, pooled HUVEC, TNFa stimulus (AID 457); calls only; 0.2% of 10,000 active; Pooled HUVEC, TNFa-induced VCAM-1 immunofluorescence imaging; hits of this screen are not shown here;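 active means a top-ranked rise in VCAM-1 staining upheld on image or statistical review; inactive means the rest, including candidates rejected on review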;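 further: compounds tested at 5 µM in the well; cells exposed to compound for 24 hours before fixing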
FPR ligand = human FPR ligands by binding competition, primary screen, cell-based, FPRL1 counter-screen, flow cytometry | AID 440, 2006 | FPR-expressing cells, fluorescent ligand binding | inhibition, %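 (tested at 6.7 µM)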 | fMet-Leu-Phe receptor (Homo sapiens), P21462 | 0.74% of 24,000 active;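 further: 0% = buffer wells and 100% = receptor blocker peptide wells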
FPRL1 ligand = human FPRL1 ligands by binding competition, primary screen, cell-based, FPR counter-screen, flow cytometry | N-formyl peptide receptor 2 (Homo sapiens), P25090 | FPRL1-expressing cells, fluorescent ligand binding inhibition | inhibition, %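 (tested at 6.7 µM)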 | 0.3% of 24,000 active | AID 441, 2006;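 further: 0% = buffer alone and 100% = receptor blocker peptide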
Target sequence (P25090 whole entry, looked up): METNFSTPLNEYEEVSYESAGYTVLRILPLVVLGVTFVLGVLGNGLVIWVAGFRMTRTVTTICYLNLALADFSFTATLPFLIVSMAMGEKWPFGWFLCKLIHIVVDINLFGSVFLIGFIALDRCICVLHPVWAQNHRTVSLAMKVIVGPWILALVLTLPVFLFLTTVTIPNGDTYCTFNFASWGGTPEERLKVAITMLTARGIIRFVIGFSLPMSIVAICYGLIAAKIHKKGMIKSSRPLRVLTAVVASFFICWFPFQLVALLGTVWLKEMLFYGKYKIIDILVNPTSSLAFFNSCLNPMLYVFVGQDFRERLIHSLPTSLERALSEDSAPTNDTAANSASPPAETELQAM
VCAM-1 down imaging = inhibitors of TNFa-induced VCAM-1 surface display, imaging, high-content imaging, pooled HUVEC, TNFa stimulus (AID 456) | HUVEC TNFa-induced VCAM-1 surface expression, immunofluorescence imaging; numbers were filed only for top-ranked candidate wells | 0.2% of 10,000 active | one-dose inhibition, % at 5 µM; IC50 in µM for titrated hits;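 active means top tenth filtered wells with inhibition above zero that passed visual or statistical confirmation; inactive means the rest, including hits rejected on review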;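 further: 0% = stimulated vehicle wells and 100% = unstimulated cells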
VCAM-1 inhibition = inhibitors of TNFa-induced VCAM-1 surface display, cell-based, plate reader, pooled HUVEC, TNFa stimulus (AID 454). HUVEC TNFa-induced VCAM-1 surface immunofluorescence, plate reader; numbers were filed only for top-ranked candidate wells. inhibition, % at 5 µM. 0.2% of 10,000 active;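 active means compound among top-ranked inhibitors of TNF-induced VCAM-1 adhesion protein staining, with the hit upheld by image or statistical review; inactive means the rest, including hits rejected on review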;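 further: 0% = TNFa with vehicle and 100% = cells without TNFa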
Active calls of the source: *; i = inactive.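 How the source made its calls, unless noted: active means mean above 30%; inconclusive means self-fluorescent; inactive means the rest.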 A portion of the library. The share of hits here may be higher or lower than overall.

Molecule	VCAM-1 augmentation	FPR ligand	FPRL1 ligand	VCAM-1 down imaging	VCAM-1 inhibition
c1ccc2c(CC3=NCCN3)cccc2c1	i	2	-3	i	i
C[C@]12CC[C@H]3[C@@H](CCC4=CC(=O)CC[C@@]43C)[C@@H]1CC[C@@H]2C(=O)CO	i	3	-1	72%	i
NS(=O)(=O)c1cc2c(cc1C(F)(F)F)NC(Cc1ccccc1)NS2(=O)=O (stereo not drawn)	i	-6	-1	i	i
COc1cc2nc(N3CCN(C(=O)C4COc5ccccc5O4)CC3)nc(N)c2cc1OC (stereo not drawn)	i	0	0	i	i
Cc1nnc(NS(=O)(=O)c2ccc(N)cc2)s1	i	-9	2	i	i
COc1ccccc1OCC(O)COC(N)=O (stereo not drawn)	i	-2	-3	i	i
CN(C)CCCN1c2ccccc2Sc2ccccc21	i	-5	-3	i	i
CC1=NN(c2ccccc2)C(=O)C1	i	4	2	i	i
CC(C)Cc1ccc(C(C)C(=O)O)cc1 (stereo not drawn)	i	-6	5	i	i
COc1ccc(CN(CCN(C)C)c2ccccn2)cc1	i	7	0	i	i

Entries of single compounds, looked up by structure. Order of screens: VCAM-1 augmentation | FPR ligand | FPRL1 ligand | VCAM-1 down imaging | VCAM-1 inhibition
`NS(=O)(=O)c1cc2c(cc1C(F)(F)F)NC(Cc1ccccc1)NS2(=O)=O` (stereo not drawn) is entered as i | -6 | -1 | i | i
`CC1=NN(c2ccccc2)C(=O)C1` is entered as i | 4 | 2 | i | i
`C[C@]12CC[C@H]3[C@@H](CCC4=CC(=O)CC[C@@]43C)[C@@H]1CC[C@@H]2C(=O)CO` is entered as i | 3 | -1 | 72% | i
`c1ccc2c(CC3=NCCN3)cccc2c1` is entered as i | 2 | -3 | i | i
`CC(C)Cc1ccc(C(C)C(=O)O)cc1` (stereo not drawn) is entered as i | -6 | 5 | i | i

Compound activity from PubChem BioAssay.
